Screening results as filed in PubChem.
YjeE inh: qHTS Assay for Inhibitors of YjeE; tRNA threonylcarbamoyladenosine biosynthesis protein TsaE (Escherichia coli (strain …; purified YjeE, fluorescence polarisation of a bound ADP probe; 0.05% of 71,000 active; Potency, µM; active = well fitted falling curve; inconclusive = weaker or top-dose-only fall, or a rising curve; inactive = flat or poorly fitted curve;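 note: top concentration of the series not given in the record; excess ADP was the control for the full effect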
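Purified YjeE (10 uM) with BODIPY Texas Red-labeled ADP probe (2 uM); compounds pin-transferred, 15 min at room temperature. Binding inhibition read as decreased fluorescence polarization; ADP titration as control.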
PK Bst: Pyruvate Kinase; AID 361, 2006; partly purified Bacillus stearothermophilus pyruvate kinase, luminescence ATP production; ribose 5-phosphate activator present at AC10; 1.2% of 51,000 active; Potency, µM; in the data active means potency below about 11 µM; inconclusive means mostly about 12 µM to 25 µM; inactive means weaker than that;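 the screen sought inhibitors and activators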;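 note: potency is the fitted concentration of half-maximal effect; scaled between full activation by ribose 5 phosphate and full inhibition by luteolin; about four in five hits inhibit and the cells do not say which; series up to 57 µM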
An asterisk follows results filed as active; i = inactive; . = not tested or not shown.

Structure | PK Bst | YjeE inh
COc1cccc2c1C(=N)c1c(O)c3c(c(O)c1C2=O)C[C@](O)(C(C)=O)C[C@@H]3O[C@H]1C[C@H](N)[C@@H](O)[C@H](C)O1 | . | i
O=C(CSc1nnc(CNc2ccccc2)o1)N1CCCc2ccccc21 | >57 | i
O=S(=O)(c1ccc(Br)cc1)N1CCN(S(=O)(=O)c2ccc(Br)cc2)CC1 | . | i
COc1cccc(OC)c1C(=O)NCCN1CCN(C(=O)c2c(OC)cccc2OC)CC1 | >57 | i
CN(C)CCN(c1ccccn1)c1ccccn1 | . | i
CCOC(=O)C1CCCN(C(=O)C2CCCN(S(=O)(=O)c3ccc4c(c3)oc(=O)n4C)C2)C1 (stereo not drawn) | . | i
Clc1ccc(-c2noc(COc3ccccc3)n2)cc1 | . | i
O=C(Nc1ccc2oc(-c3ccccc3)nc2c1)c1ccncc1 | . | i
Cc1ccc(S(=O)(=O)NCCCNS(C)(=O)=O)cc1 | >57 | i
CCCCCOc1ccc(OC(=O)c2ccncc2)cc1 | >57 | i

(further entries)
Structure | PK Bst | YjeE inh
COC(=O)[C@@]1(Cc2ccc(OC)cc2)[C@H]2c3cc(C(=O)N4CCCC4)n(Cc4ccc(C)c(F)c4F)c3C[C@H]2CN1C(=O)c1ccccc1 | . | i
COc1ccccc1NC(=O)C1CC(=O)N(c2ccc(F)cc2)C1 (stereo not drawn) | >57 | i
COC(=O)c1sc2nc3c(cc2c1N)COC(C)(C)C3 | . | i
COc1ccc(N2CCN(C(=O)CSc3nnc(C)c(=O)[nH]3)CC2)cc1 | >57 | i
CCOC(=O)CCCN | . | i
Cc1ccc(-c2csc(NC(=O)CSc3ncn(-c4ccccc4)n3)n2)cc1 | >57 | i
CCOC(=O)c1c(CN2CCN(C)CC2)oc2ccc(O)cc12 | >57 | i
O=C(CSc1nnc(Cc2csc(Nc3cccc(Cl)c3)n2)o1)N1CCc2ccccc21 | >57 | i
COc1ccccc1NC(=O)NCCN1C(=O)C2C3C=CC(C3)C2C1=O (stereo not drawn) | . | i
Cc1c(NC(=O)c2cc3nc(-c4ccccc4)cc(C)n3n2)c(=O)n(-c2ccccc2)n1C | >57 | i

(more compounds)
Structure | PK Bst | YjeE inh
CC(OC1=CC(=O)CCC1)C(=O)c1ccccc1 (stereo not drawn) | . | i
CN(C)c1oc(-c2ccc(OCc3ccccc3)cc2)nc1C#N | 2.8* | i
O=C(NC1CCCCC1)N(CCN1CCOCC1)Cc1cc2cc3c(cc2[nH]c1=O)OCCO3 | >57 | i
N#CC12CCCCC1CC1CCCCC1(C#N)N2CCO (stereo not drawn) | >57 | i
CC(C)Nc1nc(C#N)nc(NC(C)C)n1 | >57 | i
CN(C)c1ncc2nc(-c3ccc(F)cc3)c(=O)n(Cc3ccc(F)cc3)c2n1 | . | i
COc1ccccc1NC(=O)Cn1cnc2c(cnn2-c2ccccc2)c1=O | >57 | i
CCCn1c(N)c(C(c2ccc(C(=O)OC)cc2)N2CCN(c3ccccc3)CC2)c(=O)[nH]c1=O (stereo not drawn) | >57 | i
Clc1ccc(Oc2nc(N3CCOCC3)nc(N3CCOCC3)n2)c(C2CCCCC2)c1 | >57 | i
CCOC(=O)c1ccc(S(=O)(=O)NC2CCCCCCC2)n1C | >57 | i

The listing continues:
Structure | PK Bst | YjeE inh
Cc1noc(C)c1CSc1nnc(C)c(=O)[nH]1 | >57 | i
Cc1ccc(-n2c(CSc3nc(C)cc(C)n3)nnc2SCC(=O)N2CCCC2)cc1 | >57 | i
N#CCCNc1ccc(OCCC#N)cc1 | >57 | i
Cc1ccc(-n2nnnc2SCC(=O)N2CCc3ccccc3C2)cc1 | >57 | i
CCOC(=O)N1CCN(C(=O)C2CCC(=O)N2C(C)C)CC1 (stereo not drawn) | >57 | i
Oc1ccc(O)c2c(O)cccc12 | . | i
O=c1c(CCc2ccccc2)nc2cnc(Oc3ccccc3)nc2n1C[C@H]1CCCO1 | . | i
COc1ccc(S(=O)(=O)N2CCC(C(=O)NCC(c3cccs3)N(C)C)CC2)cc1 (stereo not drawn) | >57 | i
COc1cccc(COc2nc3c(c(=O)n(C)c(=O)n3C)n2C)c1 | >26 | .
Cc1c(N=C2NC(=O)C(CC(=O)Nc3ccccc3)S2)c(=O)n(-c2ccccc2)n1C (stereo not drawn) | >57 | i

(next part)
Structure | PK Bst | YjeE inh
CCOC(=O)N1CCN(S(=O)(=O)c2cc(Br)cnc2N)CC1 | >57 | i
COc1ccc2[nH]c3cc4c(=O)c5cc(OC)ccc5[nH]c4cc3c(=O)c2c1 | . | i
CCc1ccc(-c2nc(CN3CCC(C(=O)NCc4ccccc4OC)CC3)c(C)o2)cc1 | >57 | i
Cc1cc(C(=O)Nc2ccc(S(=O)(=O)Nc3nccs3)cc2)c(C)o1 | >57 | i
COc1ccc(C(c2sc3nc(C)nn3c2O)N2CCN(Cc3ccccc3)CC2)cc1OC (stereo not drawn) | . | i
CC(C)CN1CCCC2(CCN(C(=O)c3ccco3)CC2)C1 | . | i
COC(=O)[C@@]1(Cc2ccc(F)cc2)[C@H]2c3cc(C(=O)N(C)C)n(CCF)c3C[C@H]2CN1C(=O)c1ccccc1 | . | i
CC1Cc2cc(/C(O)=C3\C(=O)C(=O)N(CCN(C)C)C3c3ccccc3F)ccc2O1 (stereo not drawn) | >57 | i
COc1cc(S(=O)(=O)N2CCCCCC2)c(OC)cc1Br | . | i
CCN(CC)CCn1c(-c2ccccc2)nc2c(NC3CCCCC3)nc(C)nc21 | . | i

(continued)
Structure | PK Bst | YjeE inh
O=C(CN1C(=O)CC(c2ccco2)Sc2ccccc21)Nc1ccccc1F (stereo not drawn) | . | i
COc1cccc(C(=O)N(Cc2nc(-c3ccc(C)cc3)no2)C(C)C)c1 | >11 | i
Cn1nc(OCc2ccccc2)ccc1=O | >57 | i
Cc1noc(C)c1CSc1nnc2n(-c3ccccc3)c(=O)c3ccccc3n12 | >57 | i
CCC(=O)Nc1nn(C)c2nc3c(C)cccc3cc12 | >57 | i
NC(=O)CN1C(=O)C(O)(CC(=O)c2ccccc2O)c2ccccc21 (stereo not drawn) | . | i
Cc1ccccc1NC(=O)CCN1CCCCCC1 | >57 | i
O=C(/C=C/N1CCOCC1)c1ccc(-c2ccccc2)cc1 | . | i
CCOC(=O)c1[nH]c(C)c(/C(O)=C2\C(=O)C(=O)N(CCN(C)C)C2c2ccncc2)c1C (stereo not drawn) | >57 | i
O=C1c2cccnc2C(=O)N1Cc1ccc2c(c1)OCO2 | >57 | i

Remaining list, next part
Structure | PK Bst | YjeE inh
Cc1ccc(C2NC(=O)NC(O)(C(F)(F)F)C2C(=O)c2cccs2)o1 (stereo not drawn) | >57 | i
COC(=O)c1cc(CSc2nnc(NC3CCCCC3)s2)oc1C | >57 | i
COC(=O)CCC(=O)Nc1sc(C)c(C)c1C(N)=O | >57 | i
Cc1cccc(NC(=O)Cn2nnc(-c3cccs3)n2)c1C | >57 | i
CC(=O)c1c(C)[nH]c(C(=O)Nc2ccc(C)cn2)c1C | 4.4* | i
Nc1cc(N)nc(SCC(=O)NCC2CCCO2)n1 (stereo not drawn) | >57 | i
CCCCOc1ccc(CNn2c(C)nc3ccccc3c2=O)cc1 | >57 | i
COc1ccc(NC(=O)CCN2CCCCCC2)c(OC)c1 | >57 | i
O=S(=O)(Nc1ccncc1)c1ccccc1 | >57 | i
CCOc1cccc(/C(O)=C2/C(=O)C(=O)N(CCN3CCOCC3)C2c2cccnc2)c1 (stereo not drawn) | >57 | i

The results go on:
Structure | PK Bst | YjeE inh
CC1(C)N=C(/C=N/O)C=[N+]1[O-] | >57 | i
Cc1noc(C)c1S(=O)(=O)N1CCC(C(=O)N2CCC(N3CCCCC3)CC2)CC1 | . | i
COc1cccc(NC(=O)CSc2nc3c(c(=O)n2C)SC(C)C3)c1 (stereo not drawn) | . | i
COCCCn1c(SCC(=O)Nc2cccc(C(=O)OC)c2)nnc1-c1ccncc1 | >57 | i
CCOC(=O)Nc1ccc(NS(=O)(=O)c2ccc(C)cc2)cc1 | . | i
O=C(Nc1scc(-c2cccs2)c1C(=O)O)c1cccs1 | . | i
Cc1cc(C(=O)OCC(=O)N2CCc3ccccc32)c(C)o1 | >57 | i
COc1ccc(-n2c(=O)cc(N3CCc4ccccc43)[nH]c2=O)cc1 | >57 | i
CC1(C)Oc2ccc3ccc(=O)oc3c2C(N2CCCCC2)C1O (stereo not drawn) | . | i
CCOC(=O)C(O)(NC(=O)c1cccnc1)C(F)(F)F (stereo not drawn) | >57 | i

New compounds follow.
Structure | PK Bst | YjeE inh
CCC(C)(C)NC(=O)c1ccc2c(c1)N(CC(=O)OC)C(=O)C(C)(C)O2 | >57 | i
CN1CCCCCC1=Nc1ccccc1C#N | >57 | i
COc1ccccc1OCC(=O)Nc1nnc(-c2ccco2)s1 | >57 | i
O=C(NC1(C(F)(F)F)Oc2ccccc2O1)N1CCCC1 | >57 | i
COC(=O)c1[nH]c2ccc(F)cc2c1NC(=O)CCN1CCN(C(=O)c2ccco2)CC1 | >57 | i
CCCCCCN(C(=O)CCCCCN1C(=O)NC(c2ccc([N+](=O)[O-])cc2)C(C(=O)OCc2ccccc2)=C1C)C(C(=O)NCCCC)c1ccc(OCC(=O)OC)c(C(=O)OC)c1 (stereo not drawn) | . | i
C=CCn1c(N)cc(=O)nc1SCC(=O)N1CCN(c2ccc(F)cc2)CC1 | >57 | i
CC(C)CC(c1nnnn1CC1CCCO1)N1CCN(Cc2ccc3c(c2)OCO3)CC1 (stereo not drawn) | >57 | i
CCN1C(=O)C(Cc2nc3ccccc3c(=O)n2C)c2ccccc21 (stereo not drawn) | . | i
Cc1ccc2cc(-c3noc(C4CCCO4)n3)c(=O)[nH]c2c1 (stereo not drawn) | . | i

Compounds above with a furan ring, fused or not (nine):
Structure | PK Bst | YjeE inh
CCOC(=O)c1c(CN2CCN(C)CC2)oc2ccc(O)cc12 | >57 | i
Cc1cc(C(=O)Nc2ccc(S(=O)(=O)Nc3nccs3)cc2)c(C)o1 | >57 | i
CC(C)CN1CCCC2(CCN(C(=O)c3ccco3)CC2)C1 | . | i
O=C(CN1C(=O)CC(c2ccco2)Sc2ccccc21)Nc1ccccc1F (stereo not drawn) | . | i
Cc1ccc(C2NC(=O)NC(O)(C(F)(F)F)C2C(=O)c2cccs2)o1 (stereo not drawn) | >57 | i
COC(=O)c1cc(CSc2nnc(NC3CCCCC3)s2)oc1C | >57 | i
Cc1cc(C(=O)OCC(=O)N2CCc3ccccc32)c(C)o1 | >57 | i
COc1ccccc1OCC(=O)Nc1nnc(-c2ccco2)s1 | >57 | i
COC(=O)c1[nH]c2ccc(F)cc2c1NC(=O)CCN1CCN(C(=O)c2ccco2)CC1 | >57 | i

The listing continues:
Structure | PK Bst | YjeE inh
CN=C1SC(CC(=O)Nc2sc3c(c2C#N)CCCC3)C(=O)N1C (stereo not drawn) | >57 | i
Cc1ccc(Cl)cc1N1CCN(S(=O)(=O)c2cccc(S(=O)(=O)N3CCCC3)c2)CC1 | >57 | i
CCSC1=C(C#N)C(=O)n2c1cc1c2CCCC1 | >57 | i
Clc1ccc(-c2nn3c(-c4cccc(Cl)c4)nnc3s2)cc1 | >26 | .
Fc1ccc(-n2c(Cc3ccccc3)nnc2SCc2nc(-c3cccs3)no2)cc1 | >57 | i
CCOc1ccc(CCNS(=O)(=O)c2c(C)n[nH]c2C)cc1OCC | >57 | i
Cn1c(=O)c2cc(S(=O)(=O)NCCC(=O)NCc3ccccc3Cl)ccc2n(C)c1=O | >57 | i
Cc1ccccc1-c1nc(CN2CCC(C(=O)NCCCN3CCCC3)CC2)c(C)o1 | >57 | i
N#CC(c1nc2ccccc2nc1N1CCCCC1)S(=O)(=O)c1ccc(Cl)cc1 (stereo not drawn) | >57 | i
CC1(C)C(c2cccs2)=[N+]([O-])C2(CCCCC/C2=N\O)N1O (stereo not drawn) | >57 | i

New compounds follow.
Structure | PK Bst | YjeE inh
CC(=O)Nc1ccc(OC(=O)C(CCS(C)(=O)=O)N2C(=O)c3ccccc3C2=O)cc1 (stereo not drawn) | >57 | i
CCOC(=O)CSc1nc2cc(OC)ccc2cc1C#N | >57 | i
O=C(OCCN1CCOCC1)c1ccc(OCCN2CCOCC2)cc1 | >26 | .
CCCN(CCC)C(=O)c1c(C)[nH]c(C(=O)OCC)c1C | . | i
Cc1ccc2oc(-c3cccc(NC(=O)C4CCCO4)c3)nc2c1 (stereo not drawn) | i | i
Cc1nc(SCc2ccc(Br)cc2)[nH]c(=O)c1C | >57 | i
Clc1nnc2ccc(-c3ccccc3)nn12 | . | i
N#Cc1nc(COc2ccc(Br)cc2)oc1N1CCN(Cc2ccccc2)CC1 | >26 | .
Cc1ccc2[nH]c(=O)c(CN(CCO)C(=O)NCc3ccccc3)cc2c1 | >57 | i
CCc1nc(SCc2ccccn2)c2c(=O)n(C)c(=O)n(C)c2n1 | . | i

(cont.)
Structure | PK Bst | YjeE inh
O=C(CC1NC(=O)NC1=O)Nc1cccc2ccccc12 (stereo not drawn) | >57 | i
N=C(N)SCC(=O)O | . | i
CCCCCn1c(=O)c(-c2nc3ccccc3c(=O)[nH]2)c(O)c2ccccc21 | >57 | i
O=C(O)CC(NC(=O)C(c1ccccc1)c1ccccc1)c1ccco1 (stereo not drawn) | >57 | i
COc1ccc(N2CCN(C(=O)C3CCN(S(=O)(=O)N4CCOCC4)CC3)CC2)cc1 | >57 | i
CCc1cccc(NC(=O)CN(C)S(=O)(=O)c2cnc[nH]2)c1 | >57 | i

These rows are one share of the data; count on the stated rates, not on these rows.
